Assay outcomes from PubChem BioAssay.
NPYLR7 ag: agonists of mosquito NPYLR7 receptor, primary screen, cell-based, Aedes aegypti, calcium fluorescence, mosquito biting behavior; Aedes aegypti neuropeptide Y-like receptor 7 (NPYLR7); HEK293T NPYLR7/Galpha15, GCaMP6s calcium fluorescence; activation, % at 10 µM; 270,000 compounds, 0.15% hits; in the data active = activation above about 40%;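 also: 0% = vehicle and 100% = reference agonist at the receptor; some compounds past the cut are filed as inactive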
NPYLR7 ag max-min: further read-out of NPYLR7 ag, marked with its call; activation, %; measured here: Max-Min RFU normalised activation; some inactives read as strong as hits;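 span of the calcium signal over five minutes; 0% = vehicle and 100% = native peptide agonist; compound fluorescence can raise it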
* = called active by the depositor; & = joins results of further samples.

canonical_smiles | NPYLR7 ag | NPYLR7 ag max-min
Cc1ccc(Nc2nc(N3CCCC3)nc3nccnc23)c(C)c1 | 2.8 | 10.9
O=C1NCCN2CCN(C(=O)c3ccc4c5c([nH]c4c3)CCCC5)CC12 (stereo not given) | 0.0 | -0.7
CCCCn1c(-c2ccccc2)nn(S(=O)(=O)c2ccc(Br)cc2)c1=O | 1.5 | -3.1
O=C(Cc1c[nH]c2cccc(Br)c12)OCC1CC1 | 6.3 | 3.0
c1ccc(NCCNc2nc(-c3ccccc3)nc3c2CCNC3)cc1 | -0.3 | -2.6
COCCNC(=O)c1cnn2c1NC(c1cccs1)CC2C(F)(F)F (stereo not given) | -14.9 | -16.9
CCOC(=O)n1ccn(C)c1=S | -8.6&13.5 | -14.0&13.4
COc1ccc(-c2nc(CN3CCC4(C=Cc5ccccc54)CC3)c(C)o2)cc1OC | -3.7 | -13.7
Cc1[nH]cnc1-c1nccn1Cc1cc(-c2cccnc2)no1 | 22.0 | 6.9
CC(NC(=O)OC(C)(C)C)C1CCCN(C(=O)c2ccc(Cl)s2)C1 (stereo not given) | 6.1 | 5.2
Cc1ccc(Nc2ncnc3c2nnn3C)cc1Cl | 8.5 | 3.6
CC1CCC(=O)N1CC(=O)N1CCC(c2ccccc2)(c2ccccc2)CC1 (stereo not given) | 3.7 | 0.5
c1ccc2[nH]c(C3CCCCC3)nc2c1 | -5.4 | -9.8
CSc1nnc(COc2ccccc2Cl)n1C1CC1 | 7.3 | 7.0
Cn1cccc1-c1cc(C(=O)NC(c2ccccc2)c2ccccc2)n(-c2ccc(F)cc2)n1 | -2.8 | 3.0
Cc1c(C(=O)N(C)Cc2ccccc2)c(C(F)(F)F)nn1C1CCCN(C)C1 (stereo not given) | 4.0 | -0.9
N#CCCCN1CCN(C(=O)c2ccc(-c3cc(-c4ccc(N5CCCCC5)cc4)n[nH]3)cc2)CC1 | -0.2 | 5.7
C=CCOc1cccc(C(=O)N2CCC(CC3CCCCO3)(C(=O)OCC)CC2)c1 (stereo not given) | -4.3 | -12.3
CN(C)CCNC(=S)NC(=O)c1ccccc1 | 2.6 | -3.1
COCC(C)NCCNc1cccnc1 (stereo not given) | 9.9 | 5.4
CC1CCc2c(sc3nc(CN4CCOCC4)nc(N4CCc5c(sc(N)c5C#N)C4)c23)C1 (stereo not given) | 4.2 | 12.1
CCOC(=O)CNC(=O)Nc1cc(C(C)(C)C)nn1-c1ccccc1 | 2.0 | 1.3
CCN(CC)C1=C(c2c(C)[nH]n(-c3cc(C)ccc3C)c2=O)C(=O)N(Cc2ccco2)C1=O | 20.0 | 30.2
CC(C)CCNC(=O)C1(C)CCN1Cc1ccc2ccccc2c1 (stereo not given) | 11.3 | 1.5
C#CCn1c(O)c(N=NC(=O)CNC(=O)/C=C/c2ccccc2)c2ccccc21 | -6.3 | -10.7
O=C(c1ccco1)N1CCN(c2nccc(-c3ccc4c(c3)OCO4)n2)CC1 | 0.9 | 11.1
Cc1nc2scc(-c3cccc(NS(=O)(=O)c4ccc(F)cc4)c3)n2c(=O)c1C | -5.4 | -5.1
Cc1nn(C)c(C)c1CC(C)NC(=O)N(C)Cc1ccncc1 (stereo not given) | 1.3 | -0.1
Cc1ccc(CN(CCc2ccccc2)C(=O)CN(C(=O)Cc2ccccc2)C(C)C)o1 | 2.1 | 13.1
O=C(C[P+](c1ccccc1)(c1ccccc1)c1ccccc1)C12CC3CC(CC(C3)C1)C2 | -9.0 | -12.2

Compound profiles, from the list above:
C=CCOc1cccc(C(=O)N2CCC(CC3CCCCO3)(C(=O)OCC)CC2)c1 (stereo not given) across the screens: NPYLR7 ag: -4.3; NPYLR7 ag max-min: -12.3
Cc1[nH]cnc1-c1nccn1Cc1cc(-c2cccnc2)no1 across the screens: NPYLR7 ag: 22.0; NPYLR7 ag max-min: 6.9

Given with values under each structure: 4 of the compounds above
Every second line gives: NPYLR7 ag, NPYLR7 ag max-min
- Cc1[nH]cnc1-c1nccn1Cc1cc(-c2cccnc2)no1
→ 22.0, 6.9
- CC(C)CCNC(=O)C1(C)CCN1Cc1ccc2ccccc2c1 (stereo not given)
→ 11.3, 1.5
- COCC(C)NCCNc1cccnc1 (stereo not given)
→ 9.9, 5.4
- CCN(CC)C1=C(c2c(C)[nH]n(-c3cc(C)ccc3C)c2=O)C(=O)N(Cc2ccco2)C1=O
→ 20.0, 30.2

Next part
canonical_smiles | NPYLR7 ag | NPYLR7 ag max-min
Cc1cc(NC(=O)c2ccc(F)c(F)c2)n(-c2nc3c(c(=O)[nH]2)CCC3)n1 | 3.0 | -0.3
CC(C)COC(=O)CCCCCN1C(=O)C2C3c4ccccc4C(c4ccccc43)C2C1=O (stereo not given) | 5.9 | 0.3
Cc1ccc(Cl)c(Oc2cc(N3CCN(C(=O)COc4ccc(Cl)cc4)CC3)ncn2)c1 | 3.6 | 5.1
Cc1c(C(=O)OCc2nnsc2Cl)sc2ncn(C)c(=O)c12 | 17.1 | 17.5
Cn1c(O)cc(=O)n(C)c1=O | 1.2 | 4.4
CCOC(=O)N1CCC(N2C[C@H](N)C[C@H]2C(=O)NC)CC1 | -1.3 | -3.0
Cc1nnc(NC(=O)NCCC2CCCCCC2)s1 | -8.6 | -9.8
O=C(C1CC1)N1CCN(c2cc(Oc3ccc(F)cc3Cl)ncn2)CC1 | 20.3 | 19.6
Cn1c(O)c(N=NC(=O)c2ccc(N)cc2)c2ccccc21 | -0.4 | -14.3
O=C(O)CCN(CCc1ccccc1)c1nc(-c2ccco2)nc2ccccc12 | 0.7 | 12.5
CN(C)CCCN(C)C(=O)Nc1cccc(F)c1 | -6.1 | -7.7
O=C(NCC(c1ccc(F)cc1)N1CCCC1)c1cn(C2CCCCC2)nn1 (stereo not given) | 4.8 | 0.5
Cc1ccc2[nH]c(O)c(N=NC(=O)CNC(=O)c3ccccc3)c2c1 | 20.8 | 7.0
O=C(CSc1nnnn1-c1cccc(F)c1)Nc1ccc2c(c1)OCCCO2 | 12.5 | 6.6
CCCCN(CC(=O)N(CCc1c[nH]c2ccccc12)Cc1ccc(OC)cc1)C(=O)NC12CC3CC(CC(C3)C1)C2 | 18.1 | 14.5
OC(COCc1ccccc1F)CN1CCCCC1Cn1cncn1 (stereo not given) | -2.0 | 1.5
CC(=O)Nc1nn(C)c2c1C(c1ccccc1)CC(=O)N2 (stereo not given) | -7.9 | -10.3
Cc1nc(CCNC(=O)N2CCC(C)c3ccccc32)cs1 (stereo not given) | -6.9 | -5.9
CCCCCCCC(=O)N1CCSC1c1cccc(Oc2ccccc2)c1 (stereo not given) | -2.6 | 4.8
CN(C)CCNC(=O)C1CCCN(S(=O)(=O)N2CCOCC2)C1 (stereo not given) | 4.3 | -1.5
CN(CC(=O)N1CCC2C(CCCN2C)C1)C(=O)c1cccs1 (stereo not given) | 1.6 | 1.1
N#CC(=C(O)CSc1n[nH]c(=O)[nH]c1=O)c1nc2ccccc2[nH]1 | -3.8 | -6.9
O=C(O)c1sc2cc(Cl)cc(Cl)c2c1Cl | 11.2 | 7.8
CC(C)(NC(=O)c1ccc(-c2cc(F)c(F)c(F)c2)cc1)C(N)=O | -0.5 | -1.5
CC(=O)c1c(C)[nH]c(C(=O)COc2ccc(Cl)c(C)c2)c1C | 7.4 | 6.0
Cc1cccc(C)c1OCCn1c(C2CC(=O)N(C(C)(C)C)C2)nc2ccccc21 (stereo not given) | -4.3 | -7.4
CN1C2CCC1CN(C(=O)Nc1cc(CC(C)(C)C)nn1C)CC2 (stereo not given) | -2.5 | -3.5
CCN(CC)S(=O)(=O)c1cccc(-n2c(O)c(C=Nc3cccc(C)n3)c3ccccc3c2=O)c1 | -5.3 | -10.5
N#CC(=C(O)CSc1n[nH]c(N)n1)c1nc2ccccc2[nH]1 | -11.5 | -19.1
Cc1nsc2nc(-c3ccc(Cl)cc3Cl)oc(=O)c12 | 0.7 | -1.5
Cn1c(=O)c2c(nc3n2CC(c2ccc(F)cc2)=NN3CC(=O)c2ccc(F)cc2)n(C)c1=O | -1.1 | -2.8
O=C(CSc1nc(Cl)cc(N2CCN(c3ccccc3F)CC2)n1)Nc1ccccc1F | -1.5 | 11.5
CCNC(=O)N1C[C@H](Oc2ccccn2)[C@H]2C[C@@H]1Cc1c2oc2ccccc12 | -10.5 | -1.9
Cc1ccc(-n2c(SCc3ccc(C(=O)N4CCOCC4)cc3)nnc2-c2ccco2)cc1 | 4.6 | 8.9
COc1ccc(C2=NN(C(C)=O)C(c3ccc([N+](=O)[O-])cc3)C2)cc1 (stereo not given) | -3.7 | -11.4
O=C(Cc1ccccc1)Nc1ncc(Cc2cccc(Cl)c2)s1 | -7.4 | -6.0
O=C(CC1Sc2ccc(C(F)(F)F)cc2NC1=O)Nc1ccc(O)cc1 (stereo not given) | -2.7 | -6.7
Cc1cc(C)c2sc(N(CCCn3ccnc3)C(=O)/C=C/c3cccs3)nc2c1 | -7.3 | -9.5
COCCN(Cc1nc2ccccc2o1)C(=O)Cc1ccc(OC)c(OC)c1 | -1.8 | 1.0
Cc1cnc(CN(C)C(=O)CC2c3ccccc3CCc3ccccc32)[nH]1 | 20.2 | 14.9
Cc1cc(NC(=O)NCc2ccc(CN3CCCN(C)CC3)cc2)no1 | -4.0 | -6.4
CCOc1cc(C2NS(=O)(=O)N=C3CCCN32)ccc1OCCOc1cccc(C)c1 (stereo not given) | 7.1 | 13.5
COc1ccc(-c2noc(CN3CCCC(OCc4ccccn4)C3)n2)cc1 (stereo not given) | 11.8&4.1 | 4.7&-0.1
Cc1n[nH]c(C)c1NC(=O)CN(C)C(=S)NC1CC2CCC1C2 (stereo not given) | -0.3 | -0.5
COCCN(C1CCCC1)S(=O)(=O)c1cc(C)ccc1C | -0.5 | -1.5
CC(O)(C#CC(O)(c1ccc(F)cc1)c1ccc(F)cc1)C1CC1 (stereo not given) | 3.5 | 4.2
CCn1nc(CC(C)C)cc1C(=O)N1CCCC2(CC1)CN(C)C(=O)O2 (stereo not given) | 7.1 | -1.2
COc1c(F)ccc(C(=O)N(Cc2ccsc2)CC(C)C)c1F | 9.5 | 3.4
CC1CCN(Cc2nnc(C(C)(C)C)o2)CC1 | -2.5 | -4.8
Cc1cccn2c(=O)c3cc(C#N)c(=NC(=O)c4ccccc4F)n(C(C)C)c3nc12 | -2.9 | -8.4
COc1ccc(F)c(-c2ccc(N)nc2)c1 | 7.9 | 4.8
CC1=CC(C)C(CO)(CO)C(C)C1 (stereo not given) | -4.2 | -8.1
CCOCCC(=O)N1CCN(Cc2cccc(-c3noc(-c4ccccc4)n3)c2)CC1 | 0.5 | -1.4
COc1ccc(C(=O)N2CCN(C(C(=O)N(C)Cc3ccccc3)C3CCCC3)CC2)cc1 (stereo not given) | 6.4 | 4.9
CN(C)CCn1c2c(c(SCC(=O)Nc3ccc(C(F)(F)F)cc3)nc1=O)CCC2 | -4.0 | -6.5
C=CCn1c(SCc2nc(C(=O)OCC)cs2)nnc1-c1cccc(C)c1 | 28.5 | 22.0
O=C(COc1ccccc1)Nc1ccc(N2CCCC2=O)c(Cl)c1 | 6.6 | 3.5
CC(C)c1csc(C2CC(=O)Nc3cc(N4CCCC4=O)ccc32)n1 (stereo not given) | 5.7 | 3.6
O=C(c1cc2n(n1)CCN(Cc1cccc(C(F)(F)F)c1)C2=O)N1CCC(n2c(=O)[nH]c3ccccc32)CC1 | -6.9 | 2.9
CCOC(=O)CCC(=O)N1CCC(Cc2ccc(F)cc2)CC1 | 0.2 | 7.6

Continuation.
canonical_smiles | NPYLR7 ag | NPYLR7 ag max-min
COc1ccc(Br)cc1C=C1SC(=S)N(CCN2CCOCC2)C1=O | -0.3 | 34.5
COc1ccc(C(CC(=O)NCCCN2CCOCC2)c2c[nH]c3ccccc23)cc1 (stereo not given) | 4.7 | 4.8
O=C1CCN(CC(=O)NCCc2ccc(Cl)cc2Cl)CC1 | 0.3 | -2.3
CN1CCC2(CCN(C(=O)c3ccc(-c4ncc[nH]4)s3)CC2)C1 | -3.9 | -5.9
COc1ccc(CNC(C)C(=O)Nc2ccc(C)cc2)c(F)c1F (stereo not given) | -1.9 | -5.9
CCN1CCN(S(=O)(=O)c2ccc(OC)c(N3CCN(C(=O)c4cc(OC)cc(OC)c4)CC3)c2)CC1 | 26.9 | 17.1
CCn1nc(C(=O)NC2CCCC(C)C2C)c2ccccc2c1=O (stereo not given) | 6.0 | 6.0
O=C(c1ccc(S(=O)(=O)Nc2ccccc2)cc1)N1CCCCC1C1OCCO1 (stereo not given) | 11.7 | 8.4
Cn1cc(C(=O)N2CCN(CC(=O)NC3CCCC3)CC2)c2nn(-c3ccccc3)c(=O)c-2c1 | -6.1 | -9.3
O=C(NCC1CCCO1)c1cccnc1N1CCN(C(=O)Cc2cccs2)CC1 (stereo not given) | 0.5 | -9.2
CCOC(=O)CCCC(=O)N1CCC(n2c(=O)oc3cccc(C)c32)CC1 | 4.4 | -1.4
COCCn1c(N2CCCCC2)nc2c1c(=O)n(C)c(=O)n2C | 2.0 | -3.7
O=C(OCC(=O)N1CCNC1=O)c1cc2c(s1)CCCC2 | 8.1 | 12.2
Cc1ccccc1-c1nc(C(=O)N(CCN(C)C)CCN(C)C)cs1 | 7.7 | 5.5
O=C(c1ccc(-c2cc(-c3cccc4c3OCCO4)[nH]n2)cc1)N1CCc2ccccc2C1 | 31.5 | 21.0
Cc1ccccc1-c1nccn1CCCN1CCOCC1 | 0.1 | -11.2
COc1ccc(S(=O)(=O)Nc2cc(S(=O)(=O)N3CCOCC3)ccc2OC)cc1 | 1.2 | 8.6
O=C(N[C@H]1CCC[C@@H]1OCc1ccccc1)c1ccc(-c2cc(-c3cccc(C(F)(F)F)c3)n[nH]2)cc1 | 24.0 | 11.3
CCCn1ncc(C(=O)N2CCC3(CC2)c2ccccc2[C@@H](N)[C@@H]3O)c1C | -4.6 | -10.8
CC(C)c1ccc(Nc2nccc3[nH]c(-c4ccccc4)nc23)cc1 | -3.1 | -10.1

In the list so far, these contain a COOH group:
canonical_smiles | NPYLR7 ag | NPYLR7 ag max-min
O=C(O)CCN(CCc1ccccc1)c1nc(-c2ccco2)nc2ccccc12 | 0.7 | 12.5
O=C(O)c1sc2cc(Cl)cc(Cl)c2c1Cl | 11.2 | 7.8

Some of the compounds tested (hit frequency here may not be typical).
